Source: PubChem BioAssay (several laboratories)
LANA-H2B inh = blocks KSHV LANA binding to histone H2A/H2B | inhibition, % (concentration not given with the values) | 320,000 compounds, 0.6% hits | Q9QR71 | cell-free LANA-H2A/H2B peptide, fluorescence polarization; in the data active means inhibition mostly above about 10%, no sharp cut-off; inactive means mostly below about 6.7%;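 further: stock transfer was 7.5 nL into about 10 µL; 0% = median of vehicle wells and 100% = median of positive control wells; one replicate is shown; the record names a cut of 25% in any replicate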
ALR H2O2 inh = inhibitors of human sulfhydryl oxidase ALR | P55789 | purified ALR, DTT oxidation, H2O2 HRP-luminol luminescence | 290,000 compounds, 3.8% hits | inhibition, % (no concentration beside the values);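 active means mean and each replicate at 75% or more; inconclusive means only one of the two met; inactive means neither met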;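 further: stock transfer was 7.5 nL into about 7.5 µL; 0% = neutral wells and 100% = wells with inactivated enzyme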
Target sequence (P55789 whole entry, looked up): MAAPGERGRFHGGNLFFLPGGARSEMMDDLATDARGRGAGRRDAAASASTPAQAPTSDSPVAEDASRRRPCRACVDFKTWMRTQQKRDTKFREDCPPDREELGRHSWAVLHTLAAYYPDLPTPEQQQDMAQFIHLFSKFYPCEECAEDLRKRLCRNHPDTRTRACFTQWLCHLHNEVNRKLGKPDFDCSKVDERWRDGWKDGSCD
FGF22 binding = FGF22 (human) thermal shift binding | AID 651658 | recombinant FGF22 thermal shift, SYPRO orange fluorescence; percent of sucrose octasulfate shift, DMSO zero | calls only at 9.99 µM | Q9HCT0 | 340,000 compounds, 1.5% hits;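 active means melting point raised past a set limit in the mean and every replicate; inconclusive means no clear call; three in four hits are not shown here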
Target sequence (Q9HCT0 whole entry, looked up): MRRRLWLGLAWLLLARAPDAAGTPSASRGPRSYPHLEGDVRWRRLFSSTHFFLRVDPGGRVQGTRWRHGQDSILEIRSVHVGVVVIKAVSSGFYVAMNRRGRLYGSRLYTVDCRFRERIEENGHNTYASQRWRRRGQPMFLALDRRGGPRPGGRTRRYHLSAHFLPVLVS
Beta2AR agonist = human beta-2 adrenergic receptor agonism by FAP. 340,000 compounds, 0.43% hits. Am2.2-beta2AR cells, FAP receptor internalization, flow cytometry; reference of the scale not given here. response, % (test concentration not listed). AID 504454;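 active means response above a set limit, near 3 SD of response in nonfluorescent compounds, cut at about 42% in these data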;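 further: stock transfer was 100 nL into about 11 µL; a reference agonist was the positive control; negative values mostly stem from fluorescent compounds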
UCH37 inh = inhibitors of human deubiquitinating enzyme UCH37; inhibition, % (no concentration beside the values); 330,000 compounds, 0.33% hits; AID 588478; purified proteasome/UCH37, Ub-AMC cleavage fluorescence;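 active means mean of two replicates above 20%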;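 further: 0% = compound-free wells with enzyme and 100% = wells lacking proteasome; stock transfer was 100 nL into about 20 µL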
Target sequence (Q9Y5K5 whole entry, looked up): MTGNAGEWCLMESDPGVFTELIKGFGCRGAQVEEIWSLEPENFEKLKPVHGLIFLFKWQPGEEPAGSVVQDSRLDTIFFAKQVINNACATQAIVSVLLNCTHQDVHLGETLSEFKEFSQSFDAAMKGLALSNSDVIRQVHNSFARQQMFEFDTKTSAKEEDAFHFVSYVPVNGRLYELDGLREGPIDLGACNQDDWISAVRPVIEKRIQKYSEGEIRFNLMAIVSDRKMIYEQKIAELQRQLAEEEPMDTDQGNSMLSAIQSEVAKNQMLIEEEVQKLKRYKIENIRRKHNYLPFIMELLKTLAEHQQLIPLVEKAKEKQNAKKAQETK
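system = Proteasome-associated human UCH37 deubiquitinase | amount = 0.15 nM proteasome as dispensed | medium = pH 7.4 Tris-HCl (50 mM) with ovalbumin, ATP-MgCl2, DTT | incubation = 30 min preincubation with enzyme, 25 min cleavage at room temperature | detection = AMC fluorescence 355/460 nm | read-out basis = percent inhibition | controls = no-proteasome and no-compound wells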
E coli growth = E. coli growth inhibition | Escherichia coli growth, OD600, 23 h; stronger effect = lower value | OD600 absorbance (test concentration not listed) | 330,000 compounds, 0.21% hits | AID 1053175;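 active means OD600 absorbance below the run mean of sample wells minus 3.6 SD, in any replicate, cut at about 0.56 in these data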;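 further: stock transfer was 300 nL into about 60 µL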
HNF4A DNA FP = change in binding of human HNF4 alpha to DNA; P41235; HNF4a-FITC DNA binding, fluorescence polarization, 1 h; activity change, % at 10 µM; 360,000 compounds, 0.3% hits; in the data active means activity change above about 30%, passing the limit was not always enough;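 further: controls were the assay level and a saturating level of protein; the project sought stronger binding though the title names inhibitors; some compounds called inactive have numbers as strong as hits; positive values seem to mean higher polarization but the record does not say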
* marks the source's active call; other numbers are inactive results; i = inactive; ? = inconclusive; · = not tested or not shown.

The first three records as a preview:
SMILES	LANA-H2B inh	ALR H2O2 inh	FGF22 binding	Beta2AR agonist	UCH37 inh	E coli growth	HNF4A DNA FP
CCOc1cc(C(=O)N2CCC(CC3CC(c4cccc(Br)c4)=NO3)(C(=O)NCC3CCCCC3)CC2)cc(OCC)c1OCC (centres undefined)	-2.1	-1	i	7	1.6	0.7	-2.3
CC(=O)Nc1sc(NC(=O)c2ccc(C)cc2)nc1-c1cccs1	-2.3	40	·	-9	-14	0.75	1.6
CCOc1ccc2oc(=O)cc(C)c2c1	-2.8	6	·	6	-67	0.69	0.8

Main list, from the first entry:
SMILES	LANA-H2B inh	ALR H2O2 inh	FGF22 binding	Beta2AR agonist	UCH37 inh	E coli growth	HNF4A DNA FP
CCOc1cc(C(=O)N2CCC(CC3CC(c4cccc(Br)c4)=NO3)(C(=O)NCC3CCCCC3)CC2)cc(OCC)c1OCC (centres undefined)	-2.1	-1	i	7	1.6	0.7	-2.3
CC(=O)Nc1sc(NC(=O)c2ccc(C)cc2)nc1-c1cccs1	-2.3	40	·	-9	-14	0.75	1.6
CCOc1ccc2oc(=O)cc(C)c2c1	-2.8	6	·	6	-67	0.69	0.8
COc1cc(NC2c3ccccc3C(=O)N2Cc2ccc3c(c2)OCO3)cc(OC)c1 (centres undefined)	-2.8	-11	i	6	4.4	0.66	-2.4
COc1ccc(S(=O)(=O)NCc2ccc3c(c2)OCO3)cc1C	0.8	-3	i	3	2.8	0.68	-2.3
CC(Oc1ccc2c(-c3ccccc3)cc(=O)oc2c1)C(=O)N1CCOCC1 (centres undefined)	-2.2	-1	i	-4	1.6	0.68	-2.9
CC1CCN(C(=O)c2ccc(S(=O)(=O)N3CCCC3)cc2)CC1	-0.5	0	i	-6	1.2	0.68	4.1
COc1ccc(-c2nc(-c3ccccc3)ncc2S(C)(=O)=O)cc1	4.3	-11	i	-7	2.0	0.68	-1.5
C=CCN1C(=O)SC(Cc2cccc(OC)c2O)C1=O (centres undefined)	-3.8	67	·	3	0.6	0.67	-1.6
O=C1CC(c2ccccc2)CC(O)=C1C=NCCc1ccccc1 (centres undefined)	-3.6	-2	i	-5	3.6	0.72	-2.0
O=C(Cc1ccccc1)NCc1ccc2c(c1)OCO2	13	-12	·	4	2.9	0.68	-2.6
Cc1c(C(=O)Nc2ccncc2)oc2c1C(=O)CC(C)(C)C2	-3.9	-8	i	-1	2.0	0.64	-3.0
N#Cc1ccc(C(=O)Nc2cc(S(=O)(=O)Nc3ccc(Cl)cc3)ccc2N2CCCCC2)cc1	-0.1	·	·	44*	-19	0.7	0.2
COc1ccc(OC)c(S(=O)(=O)Nc2cccc3ccccc23)c1	-0.3	-54	i	13	-9.4	0.67	1.9
CCOc1ccccc1NC(=O)CSc1nnnn1-c1ccc(C(=O)OC)cc1	8.2	-4	·	1	2.7	0.71	5.0
ON=C1C2CC=C(c3ccccc3)C1CCC2 (centres undefined)	·	·	i	-2	·	·	-1.7
CCOC(=O)c1ccc(N(CCC2CO2)S(=O)(=O)c2ccc(C)cc2)cc1 (centres undefined)	·	·	i	-1	·	·	-1.9
CSc1cccc(-n2c(C)cc(C(N)=O)c2C)c1	0.9	2	·	6	3.8	0.71	-0.7
CCOC(=O)c1cc2oc(C)cc2n1CC(=O)OC1CCCCC1	-4.7	8	·	9	3.6	0.68	0.4
CCOC(=O)c1ccccc1NC(=O)Cc1c(C(=O)O)n(C)c2ccccc12	0.4	60	i	2	7.2	0.68	-0.8
CCOC(=O)CC1C(=O)NCCN1S(=O)(=O)c1cccc(C(F)(F)F)c1 (centres undefined)	4.1	4	i	1	1.6	0.7	1.3
COc1ccccc1OCCSc1nc2ccccc2n1CCC(=O)O	-3.0	4	i	5	5.2	0.71	-3.7
CN(C)S(=O)(=O)c1ccc(NC(=O)c2cccnc2)cc1	-4.6	·	·	3	-2.4	0.65	3.7
COCCNC(=S)NC12CC3CC(CC(C3)C1)C2	-0.4	-14	·	-2	1.6	0.74	3.0
Cc1nc2ccccc2c(=O)n1NCc1cccs1	0.9	-4	·	-11	2.8	0.68	1.1
(listing goes on)
SMILES	LANA-H2B inh	ALR H2O2 inh	FGF22 binding	Beta2AR agonist	UCH37 inh	E coli growth	HNF4A DNA FP
Cc1cc(NC(=O)CN2C(=O)NC(C)(c3ccccc3Cl)C2=O)no1 (centres undefined)	17	-3	·	-3	-0.3	0.72	-0.1
Cc1ccc2c(c1)c1c(n2C)C(=O)CCC1	2.7	-12	·	2	-24	0.7	-2.0
CCSC1=C(C#N)C(c2cccc(OC)c2)CC(=O)N1 (centres undefined)	-1.3	·	·	-1	1.8	0.79	1.1
O=C(NCCC1CCCCN1S(=O)(=O)c1ccccc1)C(=O)NCCN1CCOCC1 (centres undefined)	-6.7	-2	i	0	1.5	0.71	-2.9
Cc1nc2cc(C(F)(F)F)ccc2n1CCNc1nc(-c2ccc(F)cc2)cs1	1.1	24	i	0	1.8	0.7	-0.2
Cc1c(CC(=O)N[C@@H](C)C(=O)O)c(=O)oc2cc3c(cc12)CCC(C)(C)O3	-1.4	·	i	1	i	0.63	-1.0
C#CCOCCOCCOCCNc1nc(N2CCN(C(=O)[C@H](CC(N)=O)n3cc(C(N)[C@@H](C)CC)nn3)CC2)nc(N2CCN(C(=O)[C@H](CCCCN)n3cc([C@@H](N)CC(N)=O)nn3)CC2)n1 (some centres undefined)	1.0	0	i	2	2.4	·	1.1
Cc1ccc2c(c1)NC(=O)C(CC(=O)NC1CCCCC1C)O2 (centres undefined)	-3.4	3	i	5	1.7	0.76	0.1
Cc1ccc(O)c(NC(=O)c2ccc3c(c2)C(=O)N(Cc2ccco2)C3=O)c1	4.4	·	i	4	0.0	0.7	1.6
COc1cccc(/C=C2/Sc3ccc(C(=O)NCCCN4CCCC4)cc3NC2=O)c1	-2.2	-4	i	19	3.7	0.68	0.0
O=C(CSC1=NC(=O)C(Cc2ccccc2)C(=O)N1)Nc1ncc(Br)cc1Br (centres undefined)	-1.4	?	i	-9	2.3	0.71	1.9
O=C(NCCc1ccccc1)C1CCCN1S(=O)(=O)c1ccccc1 (centres undefined)	-1.6	0	i	-2	0.2	0.59	1.1
COc1cc(CN2CCN(Cc3ccc([N+](=O)[O-])cc3)CC2)c([N+](=O)[O-])cc1OC	5.0	-26	i	-2	3.8	0.68	-2.0
CC(=NNC(=S)Nc1ccccc1Cl)c1ccccn1	·	·	i	3	·	·	-4.8
COc1ccc2sc(-c3ccc(SC)cc3)c(C#CCO)c2c1	-8.6	-4	i	29	-29	0.67	4.3
O=c1[nH]nc(SCc2nnc(-c3ccc([N+](=O)[O-])cc3)o2)n1C1CCCCC1	1.4	-23	i	-11	4.6	0.67	-1.9
Cc1ccc(-n2c(-c3cnccn3)n[nH]c2=S)c(Br)c1	1.0	-3	i	0	2.6	0.69	1.9
O=c1oc(Cl)c(Cl)c2ccccc12	4.0	-3	i	62*	·	·	0.8
OCCC1CN(Cc2ccc(F)cc2)CCN1CCCc1ccccc1 (centres undefined)	3.1	5	i	3	4.0	0.68	4.9
Cc1nc2ccccc2c(=O)n1Nc1cccc(Cl)c1	-8.0	-2	·	-2	-0.8	0.67	0.2
COc1ccc(-c2noc(Cc3ccccc3OC)n2)cc1	5.3	·	·	3	3.2	0.7	1.1
CC(NC(=O)c1ccc2c(c1)OCO2)c1cccc(C(F)(F)F)c1 (centres undefined)	i	·	i	-5	1.8	0.66	-2.1
CCOC(=O)C1=NNC2(c3ccc(Cl)cc3)C(=O)N(c3ccc(C)cc3)C(=O)C12 (centres undefined)	-3.0	25	·	18	5.1	0.7	-1.9
CN(C)CCNCCCOc1ccccc1-c1ccccc1	7.5	-7	·	·	3.2	0.66	·
COc1ccc(OCc2nnc3n2N=C(c2ccc(C)cc2)CS3)cc1	-2.8	-11	i	-13	0.8	0.72	-2.3
The list continues:
SMILES	LANA-H2B inh	ALR H2O2 inh	FGF22 binding	Beta2AR agonist	UCH37 inh	E coli growth	HNF4A DNA FP
O=C(N/C(=C/C=C/c1ccccc1)C(=O)N1CCOCC1)c1ccccc1Br	11	-1	i	1	8.8	0.65	3.2
C/C(=N\NC(=O)c1ccccc1O)c1cccc(NC(=O)c2ccccc2)c1	2.8	-6	i	2	·	·	-0.5
O=C1C=CC(=O)N1c1ccc(OC(F)F)cc1	-0.8	-11	i	-389	-0.6	0.62	-3.5
CCOc1cc(C(=O)NCCCn2ccnc2)cc(OCC)c1OCC	-1.8	-3	i	-3	-0.7	0.75	-1.5
Cc1ccc(-n2c(SCC(=O)O)nc3c(sc(=S)n3-c3ccc(C)c(C)c3)c2=O)cc1	-1.6	·	i	4	11	0.67	-3.6
O=C1CCc2cc(S(=O)(=O)NCc3ccccc3)cc3c2N1CC3	5.8	-2	·	-1	3.6	0.65	1.6
Cn1nnc(NC(=S)NC(=O)c2cc(Cl)ccc2Cl)n1	3.5	8	i	-7	1.9	0.66	-2.1
CC1=NN(Cc2ccccc2)C(=O)C1C(c1ccncc1)C(C#N)C#N (centres undefined)	-1.9	37	i	3	2.9	0.69	0.6
CC12CCC(=O)N1C(C(=O)NNC(=O)COc1cccc(C(F)(F)F)c1)CS2 (centres undefined)	-0.8	-3	i	1	3.9	0.7	-1.4
COc1ccc(C(=O)Nc2cccc(C)c2)cc1S(=O)(=O)N1CCOCC1	2.4	-3	·	-8	-0.7	0.66	-2.5
O=C(CSc1ncnc2scc(-c3ccccc3)c12)NC1CCS(=O)(=O)C1 (centres undefined)	-5.1	-2	i	-2	1.9	0.68	-1.5
CC(=O)N1CCN(c2ccc(NC(=O)c3ccco3)cc2)CC1	-0.2	26	i	-8	8.2	0.66	0.3
O=C(c1cc(-c2ccncc2)nc2ccc(Br)cc12)N1CCN(Cc2ccc3c(c2)OCO3)CC1	-1.6	44	i	19	2.7	0.69	4.9
OCC[C@@H]1C[C@@H](O)[C@H](O)[C@@]2(OCCc3ccccc32)O1	3.2	0	i	-1	-0.1	·	2.3
CCOc1nc(-c2ccccc2)ccc1-c1noc(-c2cccnc2)n1	0.6	-11	i	-14	-51	0.66	7.2
Cc1ccc(S(=O)(=O)NC(=O)Nc2ccc(F)c(F)c2)cc1	-0.4	-5	i	-4	0.1	0.67	-0.7
COc1ccc(Br)cc1C(=O)NC(=S)Nc1cc(-c2nc3ccccc3[nH]2)ccc1C	-0.5	-5	i	2	0.5	0.7	1.8
NCCCn1cnc2ccccc21	-3.1	-16	i	-9	1.5	0.7	-3.8
CC(NC(=O)OC(C)(C)C)C(=O)Oc1cc2oc(=O)cc(-c3ccccc3)c2cc1Cl (centres undefined)	1.5	9	·	3	·	·	-0.5
COc1ccc(NC(=O)c2ccc3c(c2)OCO3)cc1Cl	0.2	-4	·	11	0.1	0.73	0.2
CC(C)(C)c1nnc(NC(=O)NS(=O)(=O)c2ccccc2)s1	0.8	·	·	-4	·	·	-1.7
NC(=O)C1(N2CCCCC2)CCN(C(=O)CSc2nc(C(F)(F)F)cc(=O)[nH]2)CC1	-4.9	7	·	6	2.3	0.72	-1.1
Cc1cc(C)c2c(N)c(-c3nnc(SCc4ccc(Cl)cc4)n3C)sc2n1	1.7	-13	i	111*	-268	0.71	3.4
CCN(CC)CCCNC(=O)CSc1c2c(nc3cc(Cl)ccc13)CCCC2	-3.5	3	i	4	0.6	0.69	1.1
COc1ccc(C(=O)N2CCC(n3nccc3NC(=O)C3CCOC3)CC2)cc1 (centres undefined)	0.1	-6	i	-2	-0.2	0.73	1.9
Cn1c(Cl)c(/C=N/OC(=O)C2CC2)c2ccccc21	4.1	·	i	9	·	·	-2.6
COc1ccc(NC(=O)COC(=O)c2cc(OC)c(OC)c(OC)c2)c([N+](=O)[O-])c1	3.1	-1	·	5	3.7	0.71	-2.5
Cc1sc2nc[nH]c(=O)c2c1-c1ccc(F)cc1	-4.4	2	i	5	0.0	0.62	0.9

An excerpt, so the mix of outcomes need not match the whole.
